VACV mCherry inh: vaccinia inhibition (mCherry reporter); Potency, µM (highest dose often 36.5 µM), for the others: at the top dose activity change, negative = inhibition, usual class: inhibitors; AID 720579; Vaccinia virus mCherry reporter infection, fluorescence; about a quarter of the inactives have no number; 0.63% of 310,000 active; active = well fitted inhibition curve with a large enough effect; inconclusive = small, poorly fitted or top-dose-only effect; inactive = no such curve, though single readings can be large or run the other way; tested in A549 cells; further: nearly all actives have a fitted effect of over 35% in size; inactives centre near -10
Vaccinia Venus: vaccinia inhibition (Venus reporter). Potency, µM (highest dose often 36.5 µM), for the others: at the highest dose activity change, negative = inhibition, usual class: inhibitors. AID 720580. Vaccinia virus Venus reporter expression, fluorescence. 0.46% of 330,000 active; active means well fitted inhibition curve with a large enough effect; inconclusive means small, poorly fitted or top-dose-only effect; inactive means no such curve, though single readings can be large or run the other way; tested in A549 cells; further: nearly all actives have a fitted effect of over 30% in size; inactives centre near -10
The depositor's hits bear a star; i = inactive; ? = inconclusive; nt = not tested or not shown; & = joins results of further samples; [ ] = another dose, or the depositor's remark. On the % scale 0 is the no-effect control and ±100 the full control effect; potency means the concentration at half of the fitted maximal effect.

SMILES | VACV mCherry inh | Vaccinia Venus
CCCCc1c(C)nn(-c2nnc3c4ccccc4n(C)c3n2)c1C | -7% | 10%
CCC1(CC)C(=O)NC(=O)NC1=Nc1ccccc1 | i | -21%
Cc1cc(C)cc(NC(=O)CN2C(=O)CSc3ccc(S(=O)(=O)N4CCCC4)cc32)c1 | 5% | -5%
CN(CC(=O)Nc1cc(Cl)ccc1-n1cncn1)Cc1ccccc1N1CCOCC1 | i | -24%
CCN(CC)S(=O)(=O)c1ccc(OC)c(NC(=O)c2ccc(-n3cncn3)c([N+](=O)[O-])c2)c1 | i | -14%
CC(NC(=O)COC(=O)c1ccc2c(c1)S(=O)(=O)N=C1CCCCCN12)C12CC3CC(CC(C3)C1)C2 (centres undefined) | -11% | 1%
Cc1nn(C)c(Oc2cccc(C(F)(F)F)c2)c1C#N | i | -2%
CCC(CC)NC(=O)CCCSc1nc2ccccc2[nH]1 | -2% | -8%
COc1cc(C#N)ccc1OCC(=O)Nc1cccc(S(=O)(=O)N(C)c2ccccc2)c1 | -1% | -10%
CCN(Cc1ccccc1)C(=O)Cn1c(=O)cc(C)c2c(C)nn(-c3cccc(F)c3)c21 | -13% | -1%
CCN(CC)S(=O)(=O)c1ccc(OC)c(NC(=O)/C=C/c2ccco2)c1 | -8% | 4%
COc1ccc(NC(=O)c2cn(CCC#N)nc2-c2cccs2)cc1 | i | -12%
COc1cc(C(O)c2nc(-c3ccccc3C)cs2)ccc1F (centres undefined) | 1% | 3%
CC(=O)Nc1ccc(S(=O)(=O)N(C)CC(=O)Nc2ccc(Br)cc2F)cc1 | -25% | -23%
Cc1ccc(C)c2c1c1ccccc1n2C | -7% | 2%
CCOc1ccc(S(=O)(=O)N2CCN(C(=O)c3ccc(-n4cncn4)c([N+](=O)[O-])c3)CC2)cc1 | -13% | -24%
CCN1CCN(C(=O)c2cc3c(=O)n(C)c4ccccc4c3n2C)CC1 | 7% | 8%
O=C(COC(=O)C12CC3CC(CC(O)(C3)C1)C2)Nc1ccc(OC(F)F)cc1 | -11% | -8%
CCOc1ccc(-c2nnc(N)o2)cc1 | -8% | -4%
O=C(c1cc2ccc3cccnc3c2[nH]1)N1CCCCC1 | -5% | -12%
O=C(Cn1c(=O)oc2cc(S(=O)(=O)N3CCCCC3)ccc21)NCc1ccc(F)cc1 | -26% | -20%
O=C(CNC(=O)c1cccs1)NCC(=O)OCc1ccc(Cl)cc1 | -11% | -4%
Cc1ccc(NC(=O)COC(=O)COc2ccc(Cl)cc2)c([N+](=O)[O-])c1 | -9% | -9%
COc1ccc(-c2cc(C(=O)NCCc3ccccc3)c3cc(C(C)C)ccc3n2)cc1 | -22% | -17%
N#Cc1ccc(C23CC4(C2)[C@H](CN(Cc2ccc(-c5ccccc5)cc2)[C@@H]4c2ccccc2)C3c2ccc(Cl)nc2)cc1 (some centres undefined) | i | -2%

A stretch from the list above:
SMILES | VACV mCherry inh | Vaccinia Venus
Cc1ccc(NC(=O)COC(=O)COc2ccc(Cl)cc2)c([N+](=O)[O-])c1 | -9% | -9%
COc1ccc(-c2cc(C(=O)NCCc3ccccc3)c3cc(C(C)C)ccc3n2)cc1 | -22% | -17%
N#Cc1ccc(C23CC4(C2)[C@H](CN(Cc2ccc(-c5ccccc5)cc2)[C@@H]4c2ccccc2)C3c2ccc(Cl)nc2)cc1 (some centres undefined) | i | -2%

Carrying on:
SMILES | VACV mCherry inh | Vaccinia Venus
CC1=NN(C(=O)CCc2ccccc2O)C(O)(C(F)(F)F)C1 (centres undefined) | i | -5%
CC(C(=O)Nc1nc(-c2ccc(F)cc2)cs1)N1C(=O)C2CC=CCC2C1=O (centres undefined) | i | -16%
CCOc1ccc(NC(=O)C2CC(=O)N(c3ccccc3F)C2)cc1 (centres undefined) | -13% | -19%
CCn1c2ccccc2c2nnc(SCc3ccccc3)nc21 | 19% | 8%
CCCCn1nc2cc(C(=O)NCc3cc(C(F)(F)F)cc(C(F)(F)F)c3)ccc2c1OC | i | -18%
O=C(Nc1ccc(C(=O)N2CCCC2)cc1)C1CCCCC1 | -26% | -8%
C[C@]12CCC3C(CC[C@H]4C[C@@H](O)CC[C@]34C)C1CC[C@@H]2N (some centres undefined) | -1% | -8%
Cc1nn(S(=O)(=O)c2ccccc2)c(C)c1S(=O)(=O)N1CCC(C)CC1 | -6%[7.34 µM] | 6%[7.34 µM]
O=C(O)c1cc(-c2ccco2)nn1-c1ccc(Cl)cc1 | -7% | -6%
Cc1cc(C(C)(C)C)cc(S(=O)(=O)NCC(=O)O)c1C | nt | -3%
Cc1cccc(S(=O)(=O)NC(=O)C2(C)CCN2C(=O)c2cccc(F)c2)c1 (centres undefined) | 39%[activator] | -3%
CN1CCN(C(CNC(=O)C(=O)Nc2ccc3c(c2)OCCO3)c2ccc(F)cc2)CC1 (centres undefined) | i | -22%
C[C@H](CO)N1C[C@H](C)[C@@H](CN(C)C(=O)NC2CCCCC2)Oc2c(NC(=O)Nc3ccc4c(c3)OCO4)cccc2C1=O | -15% | -10%
O=c1c2ccccc2sc2nc(CCl)nn12 | ? | -21%
Cc1ccc(S(=O)(=O)N2CC(CO)=CCC2c2ccccc2)cc1 (centres undefined) | -14% | -4%
COc1cc(CC(C#N)(CO)c2nc3ccccc3[nH]2)ccc1OC(F)F (centres undefined) | -5% | -4%
Cc1cn(C2CC(O)C(O)C(CO)O2)c(=O)[nH]c1=O (centres undefined) | 47%[activator] | 9%
COC(=O)CSc1nc2c(c(=O)[nH]c(=O)n2C)n1CCC(C)C | -14% | -12%
Cc1ccc(C(=O)NC2CCN(C(=O)Nc3ccccc3Cl)CC2)cc1 | -22% | -14%
CC(=O)c1cc2c(cc1N/C(=N/S(=O)(=O)c1ccc(C)cc1)c1ccc(F)cc1)OCO2 | -23% | -13%
C[C@H]1CN([C@@H](C)CO)C(=O)CCCn2nncc2CO[C@@H]1CN(C)C(=O)NC1CCCCC1 | -11% | -11%
CC1(C)CC(=O)C(C(C2=C(O)CC(C)(C)CC2=O)c2ccco2)C(=O)C1 (centres undefined) | -11% | 1%
CCOCCCNC(=O)c1c(N)n(-c2ccc3c(c2)OCO3)c2nc3ccccc3nc12 | -1% | -7%
Cc1cc(C)c(NC(=O)c2ccc[n+](Cc3ccc([N+](=O)[O-])cc3)c2)c(C)c1 | -10% | -5%
CCCN1C(=O)C2(SC(NC(C)=O)=NN2C(C)=O)c2cc(C)ccc21 (centres undefined) | -5% | 0%
SMILES | VACV mCherry inh | Vaccinia Venus
CNS(=O)(=O)c1cccc(C(=O)OCC(=O)/C=C2/N(C)c3ccccc3C2(C)C)c1 | -25% | -19%
O=C(CSc1nncn1-c1ccccc1)c1c[nH]c2ccccc12 | -1% | -6%
COc1ccccc1N=NC1=C(O)CC(C)(C)CC1=O | ? | -14%
Cc1ccc(-c2nnc(SCC(=O)N/N=C/c3ccc(C)s3)n2-c2ccc(C)cc2)cc1 | -19% | -12%
CCC(Sc1nc2ccncc2[nH]1)C(=O)Nc1cc(C)ccc1C (centres undefined) | -10% | -10%
O=c1[nH][nH]c(-c2ccccc2O)c1C(C[N+](=O)[O-])c1ccccc1 (centres undefined) | -20% | -14%
COCCn1c(-c2ccc(Br)cc2)csc1=Nc1cccnc1 | ? | ?
CC1=C(OC(=O)c2ccc(Br)cc2)C(C)(C)C(c2ccccc2)OC1=O (centres undefined) | nt | -2%
COc1ccc(-c2csc(C(O)(c3ccccc3)C(F)(F)F)n2)cn1 (centres undefined) | ? | -29%
Cc1nc2nc(SCC(=O)NCCCN3CCCCCC3)nn2c(C)c1Cc1ccccc1 | i | -2%
COCCNC(=O)C(c1ccc(C)o1)N(C(=O)c1snc(C(N)=O)c1N)c1cc(C)cc(C)c1 (centres undefined) | -12% | ?
CCOC(=O)CC(=O)CSc1nc2ccccc2c(=O)n1-c1ccc(C(=O)N2CCOCC2)cc1 | -17% | -9%
COC(=O)C1C(=O)c2c([nH]c(C(=O)OCC3CCCO3)c2C)CC1C (centres undefined) | -5% | -9%
COc1ccc(S(=O)(=O)N2CCN(C3CCCC(C)C3)CC2)cc1 (centres undefined) | ? | -15%
CCOC(=O)c1[nH]c(C)c(C(=O)NCc2ccc(F)cc2)c1C | -10% | -4%
COCCNC(=O)c1cc2nc3c(c(C(F)(F)F)n2n1)CCc1ccccc1-3 | i | 7%
COC(=O)C1=C(NC(=O)c2ccccc2[N+](=O)[O-])CCS1 | -13% | -10%
O=S(=O)(NCC1CCCO1)c1cccc(S(=O)(=O)N2CCCC2)c1 (centres undefined) | nt | -7%
COC(=O)C1Cc2c([nH]c3ccccc23)C2CCC(=O)N12 (centres undefined) | i | -7%
O=C(Cn1c(=O)oc2ccccc21)Nc1nc(-c2ccccc2)cs1 | -20% | -14%
COC(=O)Cc1c(C)c2ccc(OCC(=O)NCc3ccc4c(c3)OCO4)cc2oc1=O | nt | ?
COc1ccccc1CNS(=O)(=O)c1csc(C(N)=O)c1 | i | -20%
COc1ccc(Br)cc1/C=N/N1CCN(Cc2ccccc2)CC1 | -23% | -4%
O=C(NCc1ccc(F)cc1)C(C(=O)NCc1ccc(F)cc1)c1ncc(C(F)(F)F)cc1Cl | i | -8%
Cc1ccc(S(=O)(=O)Nc2cc3c(cc2C)n(C)c(=O)c(=O)n3C)c(C)c1 | -17% | -15%

A different layout for some results above.
Under each structure: VACV mCherry inh	Vaccinia Venus
> COc1ccccc1CNS(=O)(=O)c1csc(C(N)=O)c1
    i	-20%
> COc1ccc(Br)cc1/C=N/N1CCN(Cc2ccccc2)CC1
    -23%	-4%

Structural class, the compounds so far containing bromine
SMILES | VACV mCherry inh | Vaccinia Venus
CC(=O)Nc1ccc(S(=O)(=O)N(C)CC(=O)Nc2ccc(Br)cc2F)cc1 | -25% | -23%
COCCn1c(-c2ccc(Br)cc2)csc1=Nc1cccnc1 | ? | ?
CC1=C(OC(=O)c2ccc(Br)cc2)C(C)(C)C(c2ccccc2)OC1=O (centres undefined) | nt | -2%
COc1ccc(Br)cc1/C=N/N1CCN(Cc2ccccc2)CC1 | -23% | -4%

(cont.)
SMILES | VACV mCherry inh | Vaccinia Venus
CC(NC(=O)Cc1ccccc1)C(c1ccccc1)N1CCOCC1 (centres undefined) | -21% | -2%
CCc1nnc(NC(=O)c2ccc(OC)c(S(=O)(=O)N3CCCC3)c2)s1 | -9% | -16%
C=CCC(C)(NCc1ccccc1)c1ccc(C)cc1 (centres undefined) | -29% | -16%
C[C@@]12C(=O)N(CC3CCCO3)CC(=O)N1[C@@H]1c3ccccc3OC[C@@H]1[C@@H]2c1ccccc1 (some centres undefined) | -14% | -6%
O=C(Nc1cc(-c2nc3cc(Cl)ccc3o2)ccc1Cl)c1cc([N+](=O)[O-])ccc1N1CCOCC1 | -6% | -12%
Cc1[nH]c2ccccc2c1/C=N/NC(=O)c1cccc(S(=O)(=O)Nc2cccc(C(F)(F)F)c2)c1 | -25% | -28%
CCN(CC(=O)Nc1ccccc1OC)CC(=O)Nc1c(Cl)ccc(C)c1Cl | -1% | 6%
COc1ccc(CN2C(=O)N(c3ccc(F)cc3)C(=O)C2CC(=O)Nc2ccccc2)cc1 (centres undefined) | -14% | -10%
CN(C)c1ccc(C=NNc2ccccn2)c(Cl)c1 | -13% | -9%
C#CCOCC1CNC(=S)O1 (centres undefined) | -11% | -11%
COc1ccc2nc(SCC(=O)O)nc(C)c2c1 | -4% | 2%
O=[N+]([O-])c1ccc(Nc2cccc3c2[nH]c2c(-c4ccccc4)nccc23)c([N+](=O)[O-])c1 | -10% | -12%
COc1ccccc1-c1oc2ccccc2c1C#CC(C)(C)O | 2% | -9%
CN(CC(=O)Nc1ccc(F)cc1)C(=O)c1cccc(S(=O)(=O)N2CCN(c3ccc(F)cc3)CC2)c1 | ? | ?
COC(=O)C1=C(C(=O)OC)[C@@H]2N(C)c3ccc(OC)cc3[C@@]23C[C@@H](C(=O)OC)N=C3N1 | i | -8%
CCOC(=O)C1=C(COC(=O)c2ccc(OC)c(OC)c2OC)NC(=O)NC1C (centres undefined) | -16% | -11%
CCOc1ccc(NC(=O)CSc2nc3nc(C)c(Cc4ccccc4)c(C)n3n2)cc1 | -14% | -13%
Cc1cc(C)n(-c2ccc(C(=O)OCC(=O)c3c(N)n(C)c(=O)n(C)c3=O)cc2)n1 | i | -13%
COc1ccccc1C(=O)Nc1ccnn1C1CCN(C(=O)c2cnsn2)CC1 | -4% | -2%
Cc1cccc(C(=O)O[C@H]2[C@H](Cc3ccccc3)NS(=O)(=O)[C@H]3CC4C=C[C@]23O4)c1 | i | -11%&-5%
CC1(C)CC(=O)c2c(O)cc(OCC(=O)N3CCN(c4ccc(F)cc4)CC3)cc2O1 | ? | ?
CCOC(=O)c1ccc(Oc2nc(N(C)C)nc(N(C)C)n2)cc1 | -16% | -13%
CCCCN1C(=N)N([C@@H](CCC)CN2CCC[C@H]2CN2C(N)=NC[C@@H]2Cc2ccccc2)C[C@H]1Cc1ccccc1 | i | 0%
O=c1c2ccccc2nc(Cc2cccc([N+](=O)[O-])c2)n1-c1ccc(O)cc1 | -12% | -10%
COc1ccc2nc(N3CCCCC3)c(C#N)cc2c1 | -6% | -4%
